# High-throughput results: PubChem BioAssay, National Center for Advancing Translational Sciences (NCATS)
# TRPML1 inh: human mucolipin-1 channel inhibition. AID 624415. actives 0.02% (n = 390,000). TRPML1-inducible cells, Ca2+ dye fluorescence, FDSS; active compounds read low; inhibition of EC80 agonist-evoked calcium signal. Q9GZU1. activity change, negative = inhibition, % (concentration not given with the values); in the data active means activity change below about -50%; inconclusive means about -30% to -50%; inactive means above about -30%;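 also: stimulus is agonist 54-4 at its EC80 concentration; % is scaled to controls: 0 for no effect and ±100 for the full control effect; the text of the record puts the active cut at -80%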
# Target sequence (Q9GZU1 whole entry, looked up): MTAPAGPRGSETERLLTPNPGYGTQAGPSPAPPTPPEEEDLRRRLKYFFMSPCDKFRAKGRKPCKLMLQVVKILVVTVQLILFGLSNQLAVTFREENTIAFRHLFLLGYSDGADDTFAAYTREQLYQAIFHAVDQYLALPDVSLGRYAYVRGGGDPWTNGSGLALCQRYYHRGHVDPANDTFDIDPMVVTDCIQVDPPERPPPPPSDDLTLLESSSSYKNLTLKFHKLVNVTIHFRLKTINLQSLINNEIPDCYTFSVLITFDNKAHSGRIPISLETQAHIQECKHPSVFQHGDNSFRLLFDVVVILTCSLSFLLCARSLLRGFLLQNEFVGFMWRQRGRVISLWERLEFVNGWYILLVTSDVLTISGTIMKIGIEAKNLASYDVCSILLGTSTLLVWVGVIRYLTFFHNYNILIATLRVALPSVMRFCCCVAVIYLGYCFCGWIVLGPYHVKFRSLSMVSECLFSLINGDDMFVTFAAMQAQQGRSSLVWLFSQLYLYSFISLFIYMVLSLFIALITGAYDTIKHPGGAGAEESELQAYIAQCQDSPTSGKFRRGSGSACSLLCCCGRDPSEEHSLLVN
#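 TRPML1-DL cells, Tet-induced overnight (~16 h, 37 °C) at 1,500 cells/well, were loaded with Ca8 no-wash dye plus quencher for 45-90 min at room temperature. Compounds were pinned during FDSS kinetic reading; agonist 54-4 at EC80 (4 uM final) then added.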
# D2 agonist: activates the human D2 dopamine receptor; actives 0.084% (n = 360,000); AID 624465; DiscoveRx PathHunter D2 beta-arrestin, luminescence, 90 min; 100% = 57 uM dopamine signal; activation, % (no concentration beside the values); P14416; in the data active = activation above about 40%; inconclusive = about 15% to 40%; inactive = below about 15%; also: compound concentration not given in the record; the text of the record calls up to 30% inactive
# Target sequence (P14416 whole entry, looked up): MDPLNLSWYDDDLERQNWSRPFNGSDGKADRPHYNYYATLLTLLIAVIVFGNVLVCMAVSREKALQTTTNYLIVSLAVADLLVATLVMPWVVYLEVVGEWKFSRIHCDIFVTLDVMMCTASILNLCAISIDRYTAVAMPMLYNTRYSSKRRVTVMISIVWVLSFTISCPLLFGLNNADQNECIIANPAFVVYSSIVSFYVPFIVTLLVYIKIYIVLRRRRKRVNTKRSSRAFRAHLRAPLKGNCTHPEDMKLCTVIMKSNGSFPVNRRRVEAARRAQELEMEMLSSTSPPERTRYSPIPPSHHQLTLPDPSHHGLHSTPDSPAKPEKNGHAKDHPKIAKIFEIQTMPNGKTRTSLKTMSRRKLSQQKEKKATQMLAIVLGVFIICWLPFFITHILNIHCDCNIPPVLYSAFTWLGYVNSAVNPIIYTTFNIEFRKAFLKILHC
#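 Agonist mode: compounds alone added to overnight-plated D2 PathHunter cells for 90 min at 37 C, with 57 uM final dopamine (EC100) defining full response. Beta-arrestin recruitment detected by chemiluminescent reagent, read after 1 h at ambient temperature.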
# PINK1 expr mod: modulators of PINK1 expression; actives 0.2% (n = 410,000); PINK1 immunofluorescence, high-content cytometry, 24 h; AID 624263; Potency, µM (highest dose often 76.6 µM), for the others: top-dose activation (PINK1 increase), usual class: activators; active = well fitted activation curve with a large enough effect; inconclusive = small, poorly fitted or top-dose-only effect; inactive = flat fitted curve, though single readings scatter; cell line not stated here;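 also: potency is read from the fitted curve at half-maximal effect; % of control where 0% means no effect; nearly all actives have a fitted effect of over 65% in size; a mitochondrial uncoupler was the plate control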
#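 Stable cell line treated 24 h with compounds at 5 concentrations (CCCP controls), then fixed and immunostained for PINK1 plus nuclear and cell stains; PINK1 immunofluorescence quantified by laser-scanning microplate cytometry.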
# TRPML1 agonist: human mucolipin-1 channel agonism | Q9GZU1 | TRPML1-expressing cells, Ca2+ dye fluorescence, FDSS; host cell line not named in the record; reference of the full effect not given here | activation, % (concentration not given with the values) | actives 0.12% (n = 410,000); in the data active = activation above about 50%; inconclusive = about 30% to 50%; inactive = below about 30%; also: 0% is about no effect; the text of the record puts the active cut at 80%
#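 Tet-induced TRPML1-DL cells, 1,500 per well, cultured overnight, were loaded with a no-wash Ca2+ dye for 45–90 min. Calcium fluorescence was recorded on the FDSS for 110 s after compound addition, before the EC80 agonist (4 uM 54-4) was added.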
# CtBP-E1A inh: CtBP/E1A binding inhibition. AlphaScreen GST-E1A/His-CtBP binding, 1536-well; active compounds read low; control for the full effect not named in the record. activity change, % (no concentration beside the values). actives 0.49% (n = 340,000); in the data active means activity change below about -65%; inconclusive means about -30% to -65%; inactive means above about -30%; also: % is scaled to controls: 0 for no effect and ±100 for the full control effect
#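 Protein mix (5X: 125 nM each GST-E1A, His-CtBP) was incubated with pinned compound 2 h at 37 deg C in dark, in 50 mM Tris pH 8.0 buffer with 300 mM NaCl. Glutathione donor and nickel acceptor beads followed; AlphaScreen signal read after 1 h.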
# Six1-Eya2 blk: blocks human Six1 binding to Eya2 | Q15475+O00167 | AlphaScreen GST-Six1/His-Eya2 binding, biochemical; active compounds read low; control for the full effect not named in the record | activity change, % (test concentration not listed) | actives 0.56% (n = 360,000) | AID 651725; in the data active = activity change below about -65%; inconclusive = about -30% to -65%; inactive = above about -30%; also: % is scaled to controls: 0 for no effect and ±100 for the full control effect
#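 Compounds are tested against tagged Six1 and Eya2 proteins bridged by glutathione donor and nickel acceptor beads; after a one-hour incubation at 37 °C without light, AlphaScreen emission is recorded.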
# * = called active by the depositor; ? = inconclusive; · = not tested or not shown; & = joins results of further samples; [ ] = remark or other dose. Outcome played no part in choosing rows (roughly 1% active in at least one column).
SMILES,TRPML1 inh,D2 agonist,PINK1 expr mod,TRPML1 agonist,CtBP-E1A inh,Six1-Eya2 blk
CC(C)C(=O)N1CCN(c2ccccc2NC(=O)Cc2ccc(Cl)cc2)CC1,53.5,-5.7,1.5%,1.4,-2.6,-5.5
CCCc1cc(=O)n2[nH]c(SCc3ccccc3)nc2n1,12.9,-1.2,-2.0%,2.6,0.0,-0.9
COc1ccc(-c2cc(C(F)(F)F)nc(SCC(=O)NCCN3CCOCC3)n2)cc1OC,10.4,-3.4,-0.6%,4.5,-1.6,-8.1
C=CCNC(=O)C1CC1(c1cccc(C)c1)c1cccc(C)c1 (centres undefined),36.8,-2.5,3.2%,1.3,0.8,-0.4
Cc1ccccc1N(CC(N)=O)S(C)(=O)=O,-5.7,0.9,-0.3%,2.1,2.5,34.9
COc1ccc(CC(=O)OCC(=O)Nc2ccc3[nH]c(=O)[nH]c3c2)cc1,2.0,-2.4,-1.3%,0.0,-2.1,-8.2
Cc1cccc(C(=O)O/N=C2\CCS(=O)(=O)c3sccc32)c1,1.0,-2.2,-1.3%,0.0,-2.7,5.5
COc1cccc(C(=O)NC(c2ccc(Cl)cc2)c2cc(Cl)c3cccnc3c2O)c1 (centres undefined),17.1,·,?,0.1,·,·
Nc1cc(N)nc(SCc2cccc(F)c2)n1,-9.6,1.3,1.2%,-0.9,·,-11.6
CCOc1ccccc1N1CCN(C(=O)C2CSC3(C)CCC(=O)N23)CC1 (centres undefined),24.0,1.3,-0.3%,2.3,-0.2,8.1
COc1ccc(CNCCC(c2ccc3c(c2)OCO3)c2ccccc2OC)cc1 (centres undefined),-11.1,·,?,0.9,·,·
CC(=O)Nc1cccc(-c2ccnc3c2CC(C)(C(=O)NCCC(F)(F)F)O3)c1 (centres undefined),·,6.2,7.5%,-0.5,-19.0,7.9
Cc1cccc(Cn2c(=O)n(-c3cc(C)cc(C)c3)c(=O)c3oc4ccccc4c32)c1,34.5,·,-0.7%,-0.3,·,·
Cc1ccccc1OCc1nnc(SCc2cc(=O)c3ccc(C)c(C)c3[nH]2)n1C,-1.9,·,1.1%,2.3,·,·
COc1cc(OC)c(NC(=O)CN(C)S(=O)(=O)c2ccc3c(c2)CCCC(=O)N3)cc1Cl,-6.9,·,-1.5%,2.0,·,·
COCCn1c(SCC(=O)c2c[nH]c3ccccc23)nc2cc(C(=O)NCC(C)C)ccc2c1=O,5.3,·,14.6%,0.1,·,·
COc1ccccc1/C=C(\NC(=O)c1ccc(OC)c(OC)c1)C(=O)Nc1cccc([N+](=O)[O-])c1,3.2,-2.5,2.4%,1.4,-5.4,-8.3
COc1ccccc1NC(=O)C(C)Sc1nnc2ccc3ccccc3n12 (centres undefined),-5.9,·,3.1%,0.3,·,·
CCOc1cc(/C=C/C(=O)NCCc2ccc(S(N)(=O)=O)cc2)ccc1OCC(C)C,3.5,6.3,1.4%,1.7,·,-3.8
CCCCCCCCNC(=O)/C(C#N)=C/c1ccc(SC)cc1,-3.9,-0.5,9.1%,0.3,5.5,6.9
Cc1cc(/C=N/NC(N)=S)c(O)c(/C=N/NC(N)=S)c1,4.5,-5.6,44.7µM*,28.5,-91.6*,-86.9*
CNC(=O)/C=C/c1cc(C(=O)c2ccc(Cl)cc2Cl)cn1C,10.2,4.0,6.5%,1.2,·,-9.0
Cc1ccc2c(c1)c1c3n2CCN(C(=O)CCl)C3CCC1 (centres undefined),-7.1,0.0,-1.8%,-0.2,4.5,-7.1
Cc1cc(/C=N/NC(=O)c2cccc(F)c2)c(C)n1-c1ccccc1,39.2,-0.4,9.7%,1.1,·,-2.5
COc1ccc(F)cc1S(=O)(=O)Nc1cc2c3c(c1)CC(=O)N3CCC2,3.1,3.1,1.7%,0.1,-6.8,-13.8
CSc1nc2ccc(NC(=O)COc3ccccc3F)cc2s1,-2.7,-0.6,6.0%,1.7,·,7.3
CCOC(=O)c1ccccc1NC(=O)c1sc2ncn(CC)c(=O)c2c1C,23.2,·,1.8%,-0.6,·,·
O=C(Nc1nnc(-c2ccco2)o1)c1ccc(N2C(=O)CCC2=O)cc1,-16.6,-2.1,2.0%,-0.8,-3.7,-9.7
COc1ccccc1N(CC(=O)Nc1ccc2c(c1)OCCO2)S(=O)(=O)c1ccc(C)cc1,5.6,-1.3,1.0%,0.0,0.0,-2.8
CCCS(=O)(=O)c1c(S(=O)(=O)CCC)c2c(C)cccn2c1C(N)=O,-3.2,-2.5,-1.8%,-0.1,1.5,7.5
CC1CCCCN1CCCNC(=O)c1ccc(N2CCCC2=O)cc1 (centres undefined),-1.5,0.3,0.5%,0.3,1.2,3.3
CN1CCN(CC(=O)N2c3ccccc3Sc3ccccc32)CC1,2.6,2.4,0.6%,0.7,·,-1.8
Cn1nc(-c2ccccc2)c(CO)c1Oc1ccc(F)cc1,21.9,-4.3,1.5%,-0.5,2.5,7.1
CCOC(=O)c1cc(-c2ccccc2)sc1N,-1.0,-2.0,2.1%,2.0,-5.6,-17.9
O=C(N/N=C/c1ccc(Br)s1)c1ccccc1[N+](=O)[O-],8.3,-3.8,0.3%,0.6,-29.0,-19.0
CCCCCC(=O)Nc1ccc(S(=O)(=O)Nc2nccc(C)n2)cc1,-8.0,-1.3,-0.9%,-0.3,1.8,3.5
Cn1nc(C(=O)N2CCc3ccccc32)c2ccccc2c1=O,-7.9,-8.0,0.7%,0.6,·,2.3
COc1ccc(C(=O)C(C)OC(=O)CNC(=O)C2CCCCC2)cc1 (centres undefined),5.5,-0.8,1.2%&6.3%,-0.7&-1.4,·,2.1
CC(Oc1cc2oc(=O)c3c(c2cc1Cl)CCCC3)C(=O)NCc1ccccn1 (centres undefined),-2.5,-2.9,-1.3%,0.5,-12.5,0.0
COc1cccc(/C=C2\Oc3cc(OCC(=O)N4CCC[C@H]4C(=O)O)ccc3C2=O)c1,·,-2.4,0.6%,·,-1.1,-3.8
NNC(=O)CN1C(=O)Nc2ccc(Br)cc2C1c1ccccc1 (centres undefined),12.0,-0.8,0.8%[38.3 µM],0.1,-12.7,-9.0
O=c1[nH]c2ccccc2n1CCC1CCCCC1,-2.9,3.2,7.4%[38.3 µM],1.6,7.4,-0.5
Cc1cc(NC(=O)/C=C/c2ccccc2)c(C(C)C)cc1O,2.8,-1.7,1.6%,1.8,·,0.5
COc1cc(NS(=O)(=O)c2ccc3c(c2)OCC(C(=O)N2CCCC2)O3)cc(OC)c1 (centres undefined),14.8,·,-0.2%,1.0,·,·
COc1ccc(C(=O)N2CCC(n3c(C)nc4cc(F)ccc43)CC2)cc1OC,-14.4,-3.0,-4.3%,0.1,8.4,2.3
Cc1nc(CNS(=O)(=O)c2cc([N+](=O)[O-])ccc2C)cs1,·,1.1,0.5%,·,10.5,5.1
CCOc1ccccc1NC(=O)c1cc(SC)ccc1Cl,15.0,-2.0,4.8%,1.1,-13.8,19.7
O=C(CSc1nncs1)Nc1cc(S(=O)(=O)N2CCOCC2)ccc1N1CCCC1,-3.1,-3.9,-1.6%,0.4,-6.7,1.3
Cc1cc(=O)n(CC(=O)Nc2ccc([N+](=O)[O-])cc2)c(-n2nc(C)cc2C)n1,8.0,·,0.3%,1.9,·,·
COc1cc(NC(=O)C(CC(C)C)NS(=O)(=O)c2ccc3c(c2)CCCC(=O)N3)cc(OC)c1 (centres undefined),-15.4,·,0.1%,-1.0,·,·
COc1cc(/C=C/C(=O)O)ccc1OS(=O)(=O)c1c(C)cc(C)cc1C,-9.2,-3.0,0.6%,0.8,-6.5,-1.1
CN(CC(=O)Nc1ccc(F)cc1)C(=O)CCc1nc2ccccc2c(=O)[nH]1,-2.1,-6.7,-1.8%,0.3,0.0,0.0
CCCN1CCN(CCCNC(=O)C2CCN(c3nnc(-n4c(C)ccc4C)s3)CC2)CC1,-9.4,-1.7,2.6%,-0.2,-3.8,-9.3
Clc1ccccc1Nc1c2c(nc3ncnn13)CCC2,30.9,0.3,-6.2%[38.3 µM],0.8,-0.4,-0.8
Brc1cnc(N2CCCC2)nc1N1CCCCC1,-5.5,-1.6,0.3%,0.4,-19.2,18.1
CC1CCCN(CCOc2ccc(Br)cc2)C1 (centres undefined),3.8,0.0,-0.1%,-1.1,10.8,1.4
CCOC(=O)c1oc2ccccc2c1CSc1nnc(-c2ccco2)o1,3.7,-1.5,10.2%[38.3 µM],3.7,-2.2,-0.4
CC(C)Cc1nnc(NC(=O)CCC(=O)NCc2ccccc2Cl)s1,-8.6,0.8,0.7%,-0.3,6.7,0.3
COc1cccc(-c2cc(NC(C)=O)c3ncc(-c4cccc(C(C)=O)c4)n3c2)c1,13.5,-5.3,3.5%,0.4,-14.0,-10.5
CN(C)c1nc2c(N)ncnc2n1[C@H]1O[C@@H](CO)[C@H](O)[C@@H]1O,3.2,-2.3,1.8%,-1.2,10.4,1.3
# (listing goes on)
SMILES,TRPML1 inh,D2 agonist,PINK1 expr mod,TRPML1 agonist,CtBP-E1A inh,Six1-Eya2 blk
O=C(Cn1ccc2cc(S(=O)(=O)N3CCCCC3)ccc21)NCc1ccccc1Cl,27.8,·,1.4%,1.1,·,·
CCOCCCNC(=O)c1ccc(CS(=O)(=O)Cc2ccc(C)cc2)o1,-3.5,-3.7,·,0.7,5.9,-1.0
CCOc1ccccc1-n1c(SCC(=O)NC(C)(C)C)nnc1-c1ccoc1C,10.7,-0.7,-1.0%,-1.1,-2.7,-4.8
COC(=O)c1cccc(NC(=O)c2cc3ccccc3o2)c1,·,3.5,1.0%,·,·,4.2
Cc1cccc(S(=O)(=O)NCCc2cn3ccccc3n2)c1,-4.9,4.0,0.5%,0.5,·,2.6
COc1ccc(OC)c(-n2c(C)nc3cc(C(=O)O)ccc32)c1,9.1,4.9,-2.9%,1.2,5.2,5.9
COc1ccc(C(=O)c2cnc(C(C)C)n2C)cc1,1.4,1.1,1.6%[38.3 µM],0.3,-1.5,1.8
CC(C)(C)NC(=O)C(c1ccncc1)N(Cc1ccco1)C(=O)c1ccc(-c2ccccc2)[nH]1 (centres undefined),-7.7,-3.2,0.2%,-0.5,0.0,-21.4
O=C(NCc1ccco1)c1cc2ccc(O)cc2oc1=O,7.0,0.6,-0.3%,1.2,-3.1,-10.2
Cc1ccc(S(=O)(=O)N2CCN(C(=O)CSc3ncn[nH]3)CC2)c(C)c1,-9.4,0.3,0.1%,0.6,-3.5,9.7

# Compound profiles (already shown). Screens in order: TRPML1 inh | D2 agonist | PINK1 expr mod | TRPML1 agonist | CtBP-E1A inh | Six1-Eya2 blk
# CCOc1ccccc1-n1c(SCC(=O)NC(C)(C)C)nnc1-c1ccoc1C is listed with 10.7 | -0.7 | -1.0% | -1.1 | -2.7 | -4.8
# CC(C)(C)NC(=O)C(c1ccncc1)N(Cc1ccco1)C(=O)c1ccc(-c2ccccc2)[nH]1 (centres undefined) is listed with -7.7 | -3.2 | 0.2% | -0.5 | 0.0 | -21.4
# O=C(NCc1ccco1)c1cc2ccc(O)cc2oc1=O is listed with 7.0 | 0.6 | -0.3% | 1.2 | -3.1 | -10.2
# COC(=O)c1cccc(NC(=O)c2cc3ccccc3o2)c1 is listed with · | 3.5 | 1.0% | · | · | 4.2
